Screening results (PubChem)
Six1-Eya2 inh: qHTS Assay for Inhibitors of the Six1/Eya2 Interaction. activity change, % (test concentration not listed). hit rate 0.56% among 360,000. AlphaScreen GST-Six1/His-Eya2 binding, biochemical; active compounds read low; control for the full effect not named in the record; in the data active = activity change below about -65%; inconclusive = about -30% to -65%; inactive = above about -30%; further: on the % scale 0 is the no-effect control and ±100 the full control effect
Target sequence (O00167 whole entry, looked up): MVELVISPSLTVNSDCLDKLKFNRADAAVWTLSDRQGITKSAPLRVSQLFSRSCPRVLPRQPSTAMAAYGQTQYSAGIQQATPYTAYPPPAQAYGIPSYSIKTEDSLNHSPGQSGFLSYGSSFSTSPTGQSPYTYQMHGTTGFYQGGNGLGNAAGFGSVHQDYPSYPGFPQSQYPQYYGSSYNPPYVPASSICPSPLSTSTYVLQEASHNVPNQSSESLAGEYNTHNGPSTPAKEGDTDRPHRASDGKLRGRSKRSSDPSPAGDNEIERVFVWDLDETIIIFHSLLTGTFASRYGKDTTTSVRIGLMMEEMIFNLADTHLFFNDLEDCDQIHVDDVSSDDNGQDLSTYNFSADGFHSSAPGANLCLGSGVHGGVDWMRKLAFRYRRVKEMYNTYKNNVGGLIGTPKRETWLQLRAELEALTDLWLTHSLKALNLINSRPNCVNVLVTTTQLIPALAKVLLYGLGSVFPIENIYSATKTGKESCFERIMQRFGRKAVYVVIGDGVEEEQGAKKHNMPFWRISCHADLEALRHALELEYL
Target sequence (Q15475 whole entry, looked up): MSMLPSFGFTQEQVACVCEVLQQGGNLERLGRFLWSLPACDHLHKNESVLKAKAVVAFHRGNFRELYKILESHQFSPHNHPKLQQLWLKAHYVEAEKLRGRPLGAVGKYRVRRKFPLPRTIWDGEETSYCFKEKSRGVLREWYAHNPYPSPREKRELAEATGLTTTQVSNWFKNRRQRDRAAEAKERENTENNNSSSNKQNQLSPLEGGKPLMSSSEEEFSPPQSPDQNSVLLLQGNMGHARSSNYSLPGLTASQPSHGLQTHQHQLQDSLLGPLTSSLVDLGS
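Six1/Eya2 binding was read as AlphaScreen signal after compounds were pinned into GST-Six1 plus His-tagged Eya2 (5X stock 250/500 nM) in pH 8.0 Tris/NaCl/TCEP buffer, beads added, then incubated 1 h, 37 C, dark.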
PINK1 modulator: A Quantitative High throughput Screen to Identify Chemical Modulators of PINK1 Expression. PINK1 immunofluorescence, high-content cytometry, 24 h. Potency, µM (top dose mostly 76.6 µM), without a hit: top-dose activation (PINK1 increase), most hits filed as activators. hit rate 0.2% among 410,000. AID 624263, 2012; active = well fitted activation curve with a large enough effect; inconclusive = small, poorly fitted or top-dose-only effect; inactive = flat fitted curve, though single readings scatter; cell line not stated here;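 further: potency means the concentration at half of the fitted maximal effect; % of control where 0% means no effect; nearly all actives have a fitted effect of over 65% in size; a mitochondrial uncoupler was the plate control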
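Cells are seeded, rested 12 hours, then given compound at five concentrations or DMSO for 24 hours. After fixation, blocking and antibody staining, PINK1 amount and mitochondrial localization are scored; CCCP serves as control.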
CtBP-E1A inh: qHTS Assay for Inhibitors of the CtBP/E1A Interaction; AlphaScreen GST-E1A/His-CtBP binding, 1536-well; active compounds read low; control for the full effect not named in the record; activity change, % (test concentration not listed); hit rate 0.49% among 340,000; AID 651724, 2012; in the data active means activity change below about -65%; inconclusive means about -30% to -65%; inactive means above about -30%; further: on the % scale 0 is the no-effect control and ±100 the full control effect
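AlphaScreen with 125 nM GST-E1A and 125 nM His-CtBP (5X stocks) in Tris pH 8.0, 300 mM NaCl, BSA, Tween 20, TCEP. Compounds preincubated 2 h at 37 deg C, then glutathione donor/nickel acceptor beads added for 1 h at 37 deg C in dark.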
D2 ag: Beta-Arrestin HTS for Positive Allosteric Modulators of the Human D2 Dopamine Receptor: Agonists | DiscoveRx PathHunter D2 beta-arrestin, luminescence, 90 min; 100% = 57 uM dopamine signal | hit rate 0.084% among 360,000 | D(2) dopamine receptor (Homo sapiens), P14416 | activation, % (no concentration beside the values); in the data active = activation above about 40%; inconclusive = about 15% to 40%; inactive = below about 15%; further: compound concentration not given in the record; the text of the record calls up to 30% inactive
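DiscoveRx PathHunter D2 beta-arrestin cells (2,100/well) attached overnight, then compound-stimulated 90 min at 37 C in HBSS/10 mM HEPES/0.1% Tween-20 buffer; beta-galactosidase complementation read by luminescence after 1 h at ambient temperature. Dopamine 57 uM final (EC100) as control.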
TRPML1 blocker: qHTS for Inhibitors of the Human Mucolipin Transient Receptor Potential 1 (TRPML1); AID 624415, 2012; Mucolipin-1 (Homo sapiens), Q9GZU1; activity change, negative = inhibition, % (concentration not given with the values); TRPML1-inducible cells, Ca2+ dye fluorescence, FDSS; active compounds read low; inhibition of EC80 agonist-evoked calcium signal; hit rate 0.02% among 390,000; in the data active means activity change below about -50%; inconclusive means about -30% to -50%; inactive means above about -30%;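 further: stimulus is agonist 54-4 at its EC80 concentration; on the % scale 0 is the no-effect control and ±100 the full control effect; the text of the record puts the active cut at -80%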
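TRPML1-DL cells, Tet-induced overnight (~16 h, 37 °C) at 1,500 cells/well, were loaded with Ca8 no-wash dye plus quencher for 45-90 min at room temperature. Compounds were pinned during FDSS kinetic reading; agonist 54-4 at EC80 (4 uM final) then added.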
TRPML1 agonist: qHTS for Agonists of the Human Mucolipin Transient Receptor Potential 1 (TRPML1) | Mucolipin-1 (Homo sapiens), Q9GZU1 | TRPML1-expressing cells, Ca2+ dye fluorescence, FDSS; host cell line not named in the record; reference of the full effect not given here | activation, % (no concentration beside the values) | hit rate 0.12% among 410,000 | AID 624414, 2012; in the data active = activation above about 50%; inconclusive = about 30% to 50%; inactive = below about 30%; further: 0% is about no effect; the text of the record puts the active cut at 80%
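Cells: TRPML1-DL, 1X Tet inducer, ~16 h at 37 degrees C/5% CO2. Dye: ABD Ca8 no-wash + quencher, 45-90 min RT. Read: 10 s baseline, compound add, 110 s agonist phase; 54-4 EC80 (4uM final), 110 s antagonist phase.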
Starred values were filed as active, the others as inactive; ? = inconclusive; nt = not tested or not shown; & = joins results of further samples; [ ] = dose if it differs, or a comment.

SMILES	Six1-Eya2 inh	PINK1 modulator	CtBP-E1A inh	D2 ag	TRPML1 blocker	TRPML1 agonist
Cc1ccc(F)c(CNC(=O)C2CCC(=O)N(CCCN3CCCC3=O)C2)c1F (stereo not drawn)	4	2.1%	6	8.6	-2	0.2
COc1c(C)cc(C(=O)C2CCCN(C(=O)c3ccc4[nH]ccc4c3)C2)cc1C (stereo not drawn)	-4	3.9%	0	-1.3	20	-0.5
Cc1cccc(Nc2nc(NCc3ccco3)c3ccccc3n2)c1	-4	-1.5%	?	0.6	16	0.1
Cc1ccc(S(=O)(=O)N(C)C[C@@H]2Oc3c(NC(=O)C4CC4)cccc3C(=O)N([C@@H](C)CO)C[C@@H]2C)cc1	-1	-0.2%	0	-0.1	-5	-0.6
CC(=O)OC(C)C1C2=C(C(=O)CC1(C)O)C(=O)c1c(ccc(-c3ccc4c(c3O)C(=O)C3=C(C4=O)C(C(C)OC(C)=O)C(C)(O)CC3=O)c1O)C2=O (stereo not drawn)	?	-2.0%	?	9.2	10	-0.2
COc1ccc(S(=O)(=O)N2CCCCC2)cc1NC(=O)c1ccc(=O)[nH]c1	-4	-0.2%	0	-3.8	2	-0.7
Cc1ccc(S(=O)(=O)N2CCN(CC(=O)N3CCCC3)CC2)c(C)c1	9	0.6%	-9	-1.9	-2	0.0
Cc1ccc(S(=O)(=O)N2[C@@H](c3ccc(Br)cc3)C(C(=O)O)=CC[C@H]2c2cccc(Cl)c2)cc1	6	0.3%	-24	-4.3	5	-0.6
COC(=O)Cc1csc(Nc2ccc(F)c(Cl)c2)n1	-3	1.6%	-4	-4.3	11	0.9
COc1cc(/C=C/C(=O)OC(C)C(=O)NC2CCCCC2C)cc(Cl)c1OC (stereo not drawn)	7	12%	7	-2.4	-8	-0.7

Of the compounds above, these have fluorine:
SMILES	Six1-Eya2 inh	PINK1 modulator	CtBP-E1A inh	D2 ag	TRPML1 blocker	TRPML1 agonist
Cc1ccc(F)c(CNC(=O)C2CCC(=O)N(CCCN3CCCC3=O)C2)c1F (stereo not drawn)	4	2.1%	6	8.6	-2	0.2
COC(=O)Cc1csc(Nc2ccc(F)c(Cl)c2)n1	-3	1.6%	-4	-4.3	11	0.9

(more compounds)
SMILES	Six1-Eya2 inh	PINK1 modulator	CtBP-E1A inh	D2 ag	TRPML1 blocker	TRPML1 agonist
O=C(Nc1ccc(N2CCN(C(=O)c3ccc(Cl)cc3)CC2)cc1)c1cccs1	9	7.7%	3	1.0	2	0.8
CCOc1ccc(Oc2ccc(NS(=O)(=O)c3ccc(CCC(=O)O)cc3)cc2)cc1	-24	2.3%	8	-2.5	12	0.0
COc1ccc(Br)cc1/C=C(\C(=O)O)c1ccc(S(=O)(=O)N2CCCCC2)s1	-3	-1.2%	0	-2.9	-7	0.3
CC(C)[C@H](NC(=O)c1ccco1)C(=O)OCC(=O)N(C)c1ccccc1	8	0.5%	nt	-2.5	-9	-0.5
Cc1ccc(NC(=O)c2cc(S(=O)(=O)N3CCCCCC3)ccc2F)cc1F	nt	9.5%	nt	nt	38	1.5
Cc1ccc(N(C)C(=O)C2CCCN2S(=O)(=O)c2cccc3nsnc23)cc1 (stereo not drawn)	0	0.5%	3	-3.3	17	0.6
COc1ccc(/C=C/c2nc3ccccc3c(=O)n2-c2cccc(C(F)(F)F)c2)cc1	nt	5.5%	nt	nt	17	1.5
COc1cccc(NC(=O)C2CCCN(S(=O)(=O)c3cn(C(C)C)cn3)C2)c1 (stereo not drawn)	nt	-1.2%	nt	nt	?	1.3
O=C1NC[C@H](CCCCN2C[C@H](Cc3ccc(O)cc3)N(CC3CCCCC3)C(=O)C2=O)N(CCc2ccccc2)C1=O	4	1.7%	-5	nt	nt	-0.3
O=C(N=C1SC2CS(=O)(=O)CC2N1c1ccc(Cl)cc1)C1CCCO1 (stereo not drawn)	7	-1.1%	0	-2.8	6	0.3

Ordered by number of heavy atoms (ascending): part of the list above.
SMILES	Six1-Eya2 inh	PINK1 modulator	CtBP-E1A inh	D2 ag	TRPML1 blocker	TRPML1 agonist
CC(C)[C@H](NC(=O)c1ccco1)C(=O)OCC(=O)N(C)c1ccccc1	8	0.5%	nt	-2.5	-9	-0.5
COc1ccc(S(=O)(=O)N2CCCCC2)cc1NC(=O)c1ccc(=O)[nH]c1	-4	-0.2%	0	-3.8	2	-0.7
COc1ccc(Br)cc1/C=C(\C(=O)O)c1ccc(S(=O)(=O)N2CCCCC2)s1	-3	-1.2%	0	-2.9	-7	0.3

(further entries)
SMILES	Six1-Eya2 inh	PINK1 modulator	CtBP-E1A inh	D2 ag	TRPML1 blocker	TRPML1 agonist
CC(=O)Nc1ccc(/C(C)=N/NC(=O)c2ccc(F)cc2)cc1	4	0.2%	-3	-6.6	28	-0.4
COC(=O)c1cc(OC)c(OC)cc1NC(=O)c1ccccc1	5	5.2%	-4	-2.1	-3	-0.2
Cc1ccc(S(=O)(=O)Nc2cc(C(C(=O)OC(C)C)C(=O)C(F)(F)F)c(O)c3ccccc23)c(C)c1 (stereo not drawn)	-77*	4.6%	-21	-2.8	-4	1.3
Cc1cc(Cl)ccc1OC(C)C(=O)OCC(=O)c1ccc[nH]1 (stereo not drawn)	4	9.3%	-1	-0.5	28	5.4
CN(C)CCCNCCCNC(=O)c1ccco1	6&7	-0.7%	3&3	0.0&0.5	-2&1	-0.4&0.0
COc1ccccc1N=c1oc2cc(O)ccc2cc1C(=O)NCC1CCCO1 (stereo not drawn)	-6	0.4%	2	-6.4	7	2.1
CCCC(C(=O)NCCC(C)C)N(Cc1ccc(OC)cc1)C(=O)c1snc(C(N)=O)c1N (stereo not drawn)	1	8.2%	11	-2.7	43	1.7
Cc1ccc2sc(C)[n+](CCO)c2c1	10	2.0%	1	-6.3	-11	-0.3
CCN(CC)S(=O)(=O)c1ccc(N2CCOCC2)c(NC(=O)c2sccc2C)c1	-11	0.0%	-3	-0.6	33	1.6
C=CCN(C(=O)C1CSC2(C)CCC(=O)N12)c1nc(-c2ccccc2)cs1 (stereo not drawn)	-15	2.1%	0	-3.1	49	-0.4
O=C(Nc1ccccc1N1CCOCC1)c1cc2ccccc2o1	5	5.6%	-3	-4.0	9	0.6
CC(=O)NCC1CCN(C(=O)C2CCC(=O)N(CCc3cccc(F)c3)C2)CC1 (stereo not drawn)	-1	-2.3%	-3	-6.3	14	-0.4
CCOC(=O)CCNC(=O)N1CCCC(N2CCN(c3ccc(OC)cc3)CC2)C1 (stereo not drawn)	20	2.1%	-12	4.8	8	0.3
CC(C)COCC(O)CCC(=O)NNC(=S)Nc1ccccc1 (stereo not drawn)	2	1.3%	20	-5.2	9	0.0
O=C(Nc1nc2ccccc2n1CCN1CCCC1)C1CCCCC1	0	1.1%	0	-4.8	-28	-0.3
COc1ccccc1C(=O)Nc1cccc(C(=O)OCc2cc(=O)n3c4c(sc3n2)CCCC4)c1	nt	0.7%	nt	nt	4	1.5
COc1ccc([C@H]2CC(=O)C=C(c3ccc(CO)cc3)C2)cc1	-6	0.7%	1	-6.6	12	-0.4
COc1ccc(C(CC(=O)Nc2ccc(F)cc2)c2ccccc2)cc1 (stereo not drawn)	0	2.8%	3	-5.9	15	4.8
COc1ccc(CNC(=O)C[C@H]2C[C@H](C(=O)N3CCOCC3)[C@@]3(CCC4CCCC4)c4[nH]c5ccc(Cl)cc5c4CCN3C2=O)cc1OC	4	3.2%	-1	-3.2	5	1.6
CCCCn1c(SCC(=O)O)nc2ccccc21	-2	-4.4%[38.3 µM]	-8	-4.5	0	0.0
O=C(c1c[nH]c(C(=O)C(Cl)(Cl)Cl)c1)c1ccccc1Cl	9	0.4%	8	0.5	-1	-0.2
CC(C)(C)c1ccc(OC(=O)c2ccc3snnc3c2)cc1	-5	4.4%	9	-6.8	5	-0.5
COc1ccc(C(=O)N/C(=C\c2ccc(Cl)cc2)C(=O)NCC2CCCO2)cc1 (stereo not drawn)	-5	-0.5%	4	-4.6	2	0.0
CC(=O)Oc1cc(O)c2c(c1)OC(c1ccc(OC(C)=O)c(OC(C)=O)c1)C(OC(C)=O)C2=O (stereo not drawn)	-14	0.0%	0	0.3	10	0.5
CC(NS(=O)(=O)c1ccc(OCC(=O)N2CCOCC2)cc1)c1ccccc1 (stereo not drawn)	9	0.3%	-5	-0.7	0	-0.7
CCOC(=O)c1c(-c2ccc(C)cc2)csc1NC(=O)c1cc(=O)c2cc(C)c(C)cc2o1	nt	1.7%	nt	nt	2	-0.6
C/C(Nc1ccc(Cl)cc1)=C1/CCOC1=O	8	0.0%	1	1.3	33	1.7
CC(=O)Nc1ccc(NS(=O)(=O)c2c(C(=O)N3CCC(C)CC3)c(C)n(C)c2C)cc1	nt	-1.2%	nt	nt	10	2.7
CC(C)n1c(-c2ccc(N(C)C)cc2)nc2ccccc21	?	?	-28	-4.3	4	0.4&-0.3
N#Cc1ccccc1OCCCN1CCC(Cc2ccccc2)CC1	-9	-1.4%	nt	0.4	6	-0.5
CCN(c1ccc(C)cc1C)S(=O)(=O)c1nnc(NC(=O)c2ccc(F)cc2)s1	nt	1.5%	nt	nt	21	1.6
COc1cccc(CNC(=O)Cn2nc(C)c([N+](=O)[O-])c2C)c1	6	0.0%	nt	-0.9	nt	nt
CCOC(=O)c1cnc2ccc(OCC)cc2c1Nc1ccc(OCc2ccccc2Cl)cc1	nt	4.3%	nt	nt	-9	0.1
Cc1ccccc1-n1cc(CNC(=O)CCc2nnc(CCc3ccccc3)o2)cn1	-3	0.2%	1	1.8	-7	0.8
Cc1ccccc1Cn1c(C)c(CNCCCc2ccccc2)c(C(=O)O)c1C	nt	-0.3%	nt	nt	2	-0.7
CC(=O)c1cc2c(cc1NC(=O)Cn1cnc3ccccc3c1=O)OCO2	4	5.8%	-1	2.5	13	2.3
Cc1ccccc1Nc1nc(N)nc(COC(=O)c2cccc(S(=O)(=O)N(C)c3ccccc3)c2)n1	-14	9.1%	1	-2.5	9	2.5
CN1CCc2c(sc(/N=C/c3cccs3)c2C(N)=O)C1	-28	2.5%	?	-3.2	5	2.4
O=C(O)c1ccc(NCc2nc3ccccc3n2CCOc2ccccc2Cl)cc1	-3	5.1%&0.6%	2	3.4	4&-8	0.9&1.5
COc1ccc(CCC(=O)OCC(=O)c2cccc(OC)c2)cc1	5	-0.9%	2	5.0	4	-0.3
CCNC(=S)N/N=C/c1cc(C)n(-c2ccc(Cl)cc2)c1C	-19	0.1%	-17	-5.0	25	0.2
COC(=O)c1cn(C(=O)c2ccc3c(c2)OCO3)c2ccccc12	1	11%	-2	-9.9	4	0.2
Cc1ccc2c(c1)c1nnc(SCC(=O)Nc3ccc(N(C)C)cc3)nc1n2CC(=O)O	?	0.1%	nt	5.8	10	-0.4

The order is random, and some 1% of all compounds hit somewhere here.
